# GALR2 ag = GALR2 (human) receptor agonism. activation, %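 (tested at 5 µM)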. GALR2-expressing cells, agonist activation read-out. O43603. 140,000 compounds, 0.48% hits. AID 803;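 active means above mean plus 3 SD of all compounds, about 5% in these data, not always enough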;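 further: 0% = vehicle buffer wells and 100% = reference agonist at full effect; tested in CHO reporter cells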
# Target sequence (O43603 whole entry, looked up): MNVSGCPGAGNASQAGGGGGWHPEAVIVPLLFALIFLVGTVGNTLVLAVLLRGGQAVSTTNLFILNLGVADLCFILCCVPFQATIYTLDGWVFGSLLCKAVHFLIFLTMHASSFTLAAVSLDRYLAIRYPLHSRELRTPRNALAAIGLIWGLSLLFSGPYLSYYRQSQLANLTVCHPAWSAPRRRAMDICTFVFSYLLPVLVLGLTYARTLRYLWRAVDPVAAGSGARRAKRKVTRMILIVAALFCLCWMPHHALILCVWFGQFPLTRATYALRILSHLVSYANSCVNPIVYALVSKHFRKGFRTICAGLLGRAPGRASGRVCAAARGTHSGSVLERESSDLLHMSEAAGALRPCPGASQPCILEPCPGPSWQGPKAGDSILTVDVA
# RGS16-Gao HTS = regulators of human RGS16-Galphao interaction. bead-based flow cytometry RGS16-Galphao binding, fluorescence; actives lie on both sides. 220,000 compounds, 0.38% hits. binding response (% of control), % at 10 µM. O15492+P09471;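 active means below 25% or above 175%, edge rows of some plates excepted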;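 further: Galphao activated by GDP with aluminum fluoride before binding; 100% = wells without compound and 0% = beads without RGS; some results beyond the cut were filed as inactive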
# Target sequence (O15492 whole entry, looked up): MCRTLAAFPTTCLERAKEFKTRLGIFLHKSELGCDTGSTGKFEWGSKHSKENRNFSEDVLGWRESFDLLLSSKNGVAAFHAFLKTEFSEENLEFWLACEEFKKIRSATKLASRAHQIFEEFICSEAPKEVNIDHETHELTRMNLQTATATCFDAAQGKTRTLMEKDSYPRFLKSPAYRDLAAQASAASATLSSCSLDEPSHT
# Target sequence (P09471 whole entry, looked up): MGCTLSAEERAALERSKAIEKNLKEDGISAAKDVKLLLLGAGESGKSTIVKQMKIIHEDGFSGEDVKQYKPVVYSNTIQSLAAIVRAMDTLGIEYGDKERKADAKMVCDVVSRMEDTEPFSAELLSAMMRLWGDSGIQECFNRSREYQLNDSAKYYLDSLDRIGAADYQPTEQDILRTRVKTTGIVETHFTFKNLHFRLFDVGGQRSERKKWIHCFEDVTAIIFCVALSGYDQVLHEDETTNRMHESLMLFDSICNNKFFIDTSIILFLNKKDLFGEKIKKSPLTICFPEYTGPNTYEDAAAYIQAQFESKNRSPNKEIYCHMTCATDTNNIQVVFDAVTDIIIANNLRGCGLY
# PKD1 inh = inhibitors of human PKD1 kinase | Q15139 | PKD1 kinase fluorescence polarization assay | inhibition, %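 (about 10 µM by stock and volumes)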 | 200,000 compounds, 0.056% hits | AID 797;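 active means inhibition of 50% or more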;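 further: controls were vehicle for no effect and a reference inhibitor for full effect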
# INS promoter inh = TRM-6 insulin promoter activity inhibition. TRM-6 cells (human fetal islet line), insulin promoter-eGFP reporter, imaging; reporter expression induced with tamoxifen. inhibition, % at 2 µM. 130,000 compounds, 0.9% hits. AID 1273;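 active means inhibition above the mean plus 3 SD, with well images judged a real hit on visual review, cut at about 60% in these data, passing the limit was not always enough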
# HSV augment = increases HSV replication in cells | HSV replication augmentation in cells, fold increase | maximum fold increase | 220,000 compounds, 0.005% hits;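 active means peak rise of 1.5-fold or more in the series; tested in PC3 cells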;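 further: first round at 10 µM; read as green reporter fluorescence; hits show the peak of a series up to 25 µM; 1 = signal of infected wells without compound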
# INS promoter inh cell count = further read-out of INS promoter inh, marked with its call; normalized cell count, %; measured here: cell count, toxicity; reference of the scale not given here;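 cells exposed to compound for 48 h; stained nuclei by imaging scaled within each plate; lower means fewer cells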
# HSV augment primary fold = also measured in HSV augment; calls as there; fold increase; compound at 10 µM; measured here: primary screen fold increase 10 uM; tested in PC3 cells;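 GFP signal in the first replicate; 1 = infected wells without compound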
# Starred values were filed as active, the others as inactive; i = inactive; nt = no result given; & = joins results of further samples.
Compound | GALR2 ag | RGS16-Gao HTS | PKD1 inh | INS promoter inh | INS promoter inh cell count | HSV augment | HSV augment primary fold
Cc1c(-c2ccccc2)nc(N)c(C#N)c1-c1ccco1 | 0.5 | 98 | 0 | 8 | 73 | i | 0.86
COC(=O)CCC(=O)Nc1sc(Cc2ccccc2)c(C)c1C(N)=O | nt | 31 | -8 | -10 | 50 | i | 1
C/C(Cc1ccccc1)=N\NC(=O)c1cccnc1 | -0.2 | 86 | -1 | -3 | 51 | i | 0.91
CCOc1ccc(NC(=O)C/C(N)=N/O)cc1 | -0.7 | 104 | -7 | -26 | 194 | i | 0.88
Cc1ccc2nc3c(cc(C#N)c(=N)n3Cc3cccnc3)c(=O)n2c1 | nt | 111 | -1 | 20 | 169 | i | 0.96
COc1ccc(OCCOCCN2CCc3ccccc3C2)cc1 | -2.2 | 100 | 5 | -22 | 68 | i | 0.97
CCOC(=O)N1CCN(C(=O)COc2cccc3c2CCN(Cc2ccccc2C)C3=O)CC1 | 0.2 | 115 | 1 | nt | nt | i | 1.2
CC(OC(=O)c1cccc(NS(C)(=O)=O)c1)C(=O)Nc1ccc(N2CCOCC2)cc1 (centres undefined) | -1.7 | 77 | 10 | -200 | 63 | i | 1
COc1ccccc1N1CCN(/N=C/c2cccc(OC)c2OC)CC1 | nt | 101 | -1 | nt | nt | i | 0.98
Cc1ccccc1-n1ncc(C(C)NC(=O)c2ccco2)c1C (centres undefined) | nt | 100 | -1 | nt | nt | i | 0.9
CCOc1ccc2nc(SCC(=O)NC(=O)NCc3ccco3)[nH]c2c1 | -0.1 | 96 | -9 | -105 | 42 | i | 0.97
Cc1ccc([N+](=O)[O-])c(OCCCN2CCCCCC2)c1 | nt | 99 | 0 | nt | nt | i | 1.1
O=C(NCc1ccccc1)C(c1cccnc1)N(Cc1ccco1)C(=O)c1ccccn1 (centres undefined) | -0.8 | 94 | -9 | nt | nt | i | 0.99
NCC(c1ccccc1)c1c[nH]c2ccccc12 (centres undefined) | nt | 101 | -3 | 12 | 117 | i | 1.1
Cc1ccc(NC(=O)c2oc3ccccc3c2C)c([N+](=O)[O-])c1 | nt | 102 | -6 | -38 | 79 | i | 0.81
O=C(c1cnc2ccccn2c1=O)N1CCCc2ccccc21 | -0.2 | 99 | -3 | nt | nt | i | 1.1
COc1cc(C(C)=O)ccc1Oc1ncnc2c1cnn2-c1ccc(C)c(C)c1 | -1.2 | 104 | -9 | nt | nt | i | 1.1
CC(C)(C)C(=O)NC(n1cnc2c(N3CCOCC3)ncnc21)C(Cl)(Cl)Cl (centres undefined) | nt | 103 | -2 | nt | nt | i | 1
Cc1cc2c(ncn2C(C)C)c(NS(=O)(=O)c2ccc(F)cc2)c1C | nt | 102 | -8 | -8 | 90 | nt | nt
COC(=O)CCCC(=O)N1CCCC(CCC(=O)NCc2ccc(F)c(F)c2)C1 (centres undefined) | nt | 98 | -5 | -40 | 93 | i | 1.1
CC(=O)N1CCc2[nH]c3ccccc3c2C1 | 0.0 | 94 | -2 | 31 | 132 | i | 0.95
CCN(CC)c1ccc(NC(=O)c2ccc3c(c2)c(C)c(C)n3C)cc1 | nt | 96 | 0 | 0 | 96 | i | 0.86
COc1ccccc1NS(=O)(=O)c1ccc(Cl)c(NC(=O)C(C)N2C(=O)c3ccccc3C2=O)c1 (centres undefined) | -1.0 | 145 | 3 | 48 | 116 | i | 0.85
COc1ccc(Br)c2oc(SC)cc(=O)c12 | -0.4 | 82 | 8 | 38 | 120 | i | 1
O=C(O)CN(c1ccccn1)S(=O)(=O)c1ccc(Cl)cc1 | -2.7 | 101 | -1 | 11 | 102 | i | 1

# In a second layout: entries from further up
> O=C(NCc1ccccc1)C(c1cccnc1)N(Cc1ccco1)C(=O)c1ccccn1 (centres undefined)
  GALR2 ag = -0.8
  RGS16-Gao HTS = 94
  PKD1 inh = -9
  INS promoter inh = nt
  INS promoter inh cell count = nt
  HSV augment = i
  HSV augment primary fold = 0.99
> NCC(c1ccccc1)c1c[nH]c2ccccc12 (centres undefined)
  GALR2 ag = nt
  RGS16-Gao HTS = 101
  PKD1 inh = -3
  INS promoter inh = 12
  INS promoter inh cell count = 117
  HSV augment = i
  HSV augment primary fold = 1.1

# (more compounds)
Compound | GALR2 ag | RGS16-Gao HTS | PKD1 inh | INS promoter inh | INS promoter inh cell count | HSV augment | HSV augment primary fold
Nc1cccnc1-n1nc(C(F)(F)F)cc1C(F)(F)F | nt | 104 | -4 | nt | nt | i | 0.99
CCOC(=O)C1CCN(C(=O)CN(c2ccc(Oc3ccccc3)cc2)S(C)(=O)=O)CC1 | nt | 111 | 0 | nt | nt | i | 1
O=C(CSc1ccc(-c2ccccn2)nn1)N1CCCCC1 | nt | 96 | -5 | 0 | 134 | i | 0.94
CCOc1ncccc1C(=O)OCc1c(F)cccc1Cl | nt | 97 | -16 | nt | nt | i | 0.84
CN(C)CCC(c1ccc(Cl)cc1)c1ccccn1 (centres undefined) | -1.0 | 108&100 | -11 | 9 | 149 | i | 1.1&0.98
O=C(c1cc(C(=O)c2ccco2)cc(C(=O)c2ccco2)c1)c1ccco1 | -0.4 | 180 | -3 | 55 | 122 | i | 0.98
CN1C(=O)/C(=C/c2ccccc2Cl)Sc2ccc(C(=O)NCc3cccnc3)cc21 | nt | 102 | 2 | -64 | 101 | i | 0.91
CCOC(=O)c1c(NC(=O)CC2SC(N)=NC2=O)sc2c1CCC(C)C2 (centres undefined) | 2.2 | 104 | -8 | nt | nt | i | 0.84
CCCCNC(=O)c1[nH]c(C)c(C(C)=O)c1C | nt | 108 | -8 | 27 | 116 | i | 0.92
CCOc1ccc(C2CC(c3ccc(CC)cc3)Nc3nc(N)nn32)cc1 (centres undefined) | 0.2 | 109 | -6 | 10 | 105 | i | 1.3
COCCNC(=O)C1CC2Cn3c(nc4cc5ccccc5cc43)C2N1C (centres undefined) | nt | 99 | nt | nt | nt | i | 0.78
NC1=NC2CS(=O)(=O)CC2S1 (centres undefined) | 0.4 | 102 | 5 | -38 | 147 | i | 1.1
O=C(CCc1nc2ccccc2c(=O)[nH]1)NC1CCN(Cc2ccccc2)CC1 | -0.9 | 115 | 1 | 50 | 76 | i | 0.95
O=C(NC(=S)Nc1ncccn1)c1ccc(Cl)cc1Cl | nt | 93 | -5 | nt | nt | i | 0.97
CCC(=O)N1CCN(c2ccc(NC(=O)c3ccco3)cc2)CC1 | -0.6 | 100 | -4 | -252 | 78 | i | 0.92
COC(=O)Nc1ccc(OCc2ccccc2)cc1 | -2.3 | 88 | -1 | -300 | 89 | i | 0.81
Cc1cc(Cl)c(S(=O)(=O)NCC2CCCO2)cc1OCC(N)=O (centres undefined) | 1.2 | 103 | -5 | 16 | 144 | i | 0.93
CCN1CCN(c2nc(-c3ccccn3)nc3ccccc23)CC1 | 0.3 | 98 | -6 | -42 | 232 | i | 0.91
COC(=O)n1c(=O)oc2cc(S(=O)(=O)N3CCCCC3)ccc21 | -0.2 | 106 | 0 | 3 | 108 | i | 1.2
COC(=O)c1cccc(-n2cnnn2)c1 | 0.0 | 92 | 3 | -81 | 105 | i | 0.86
CCCCNc1c(N)n(CC(C)C)c(=O)[nH]c1=O | nt | 99 | 3 | nt | nt | i | 1
O=c1c2cc(Cl)ccc2[nH]c(=S)n1Cc1cccs1 | -0.1 | 17* | -10 | 26 | 138 | i | 0.99
CCOc1ccc(S(=O)(=O)NC(Cc2cnc[nH]2)C(=O)O)cc1 (centres undefined) | nt | 100 | -11 | nt | nt | i | 0.91
Cc1cc(=O)[nH]c(N/N=C/c2ccccn2)n1 | -2.1 | 102 | -12 | 38 | 34 | i | 0.6
Cc1noc(C)c1C(=O)NNc1cc(Cl)ccc1Cl | nt | 105 | nt | nt | nt | i | 1.1

# Another view of some results above:
CCOc1ncccc1C(=O)OCc1c(F)cccc1Cl
- GALR2 ag: nt
- RGS16-Gao HTS: 97
- PKD1 inh: -16
- INS promoter inh: nt
- INS promoter inh cell count: nt
- HSV augment: i
- HSV augment primary fold: 0.84
CN(C)CCC(c1ccc(Cl)cc1)c1ccccn1 (centres undefined)
- GALR2 ag: -1.0
- RGS16-Gao HTS: 108&100
- PKD1 inh: -11
- INS promoter inh: 9
- INS promoter inh cell count: 149
- HSV augment: i
- HSV augment primary fold: 1.1&0.98
O=C(c1cc(C(=O)c2ccco2)cc(C(=O)c2ccco2)c1)c1ccco1
- GALR2 ag: -0.4
- RGS16-Gao HTS: 180
- PKD1 inh: -3
- INS promoter inh: 55
- INS promoter inh cell count: 122
- HSV augment: i
- HSV augment primary fold: 0.98

# Complete entries from above. Order of screens: GALR2 ag	RGS16-Gao HTS	PKD1 inh	INS promoter inh	INS promoter inh cell count	HSV augment	HSV augment primary fold
# Results for Cc1ccccc1-n1ncc(C(C)NC(=O)c2ccco2)c1C (centres undefined) = nt	100	-1	nt	nt	i	0.9
# Results for COc1ccc(OCCOCCN2CCc3ccccc3C2)cc1 = -2.2	100	5	-22	68	i	0.97
# Results for COc1ccccc1NS(=O)(=O)c1ccc(Cl)c(NC(=O)C(C)N2C(=O)c3ccccc3C2=O)c1 (centres undefined) = -1.0	145	3	48	116	i	0.85
# Results for COC(=O)Nc1ccc(OCc2ccccc2)cc1 = -2.3	88	-1	-300	89	i	0.81

# 3 compounds from above, ordered by the number in GALR2 ag, falling:
molecule	GALR2 ag
CCOc1ccc(C2CC(c3ccc(CC)cc3)Nc3nc(N)nn32)cc1 (centres undefined)	0.2
CCC(=O)N1CCN(c2ccc(NC(=O)c3ccco3)cc2)CC1	-0.6
O=C(NCc1ccccc1)C(c1cccnc1)N(Cc1ccco1)C(=O)c1ccccn1 (centres undefined)	-0.8

# The listing continues:
Compound | GALR2 ag | RGS16-Gao HTS | PKD1 inh | INS promoter inh | INS promoter inh cell count | HSV augment | HSV augment primary fold
O=C(Nc1ccccc1N1CCOCC1)c1ccc2c(c1)OCO2 | nt | 107 | -6 | -367 | 59 | i | 1.1
Cc1cc(N2CCN(c3ccccn3)CC2)n2c(nc3ccccc32)c1C#N | -1.4 | 99 | -6 | nt | nt | i | 1
COc1ccc2c(c1)CCc1cc(C(=O)O)sc1-2 | nt | 102 | nt | nt | nt | i | 0.97
Cc1ccc(C(=O)N(CC(=O)NC2CCCC2)Cc2cccs2)s1 | -2.6 | 101 | -13 | nt | nt | i | 0.5
Cc1ccc(S(=O)(=O)Oc2ccc(C(c3c(C)[nH][nH]c3=O)c3c(C)[nH][nH]c3=O)cc2)cc1 | -1.2 | 100 | 0 | -37 | 37 | i | 0.87
CCN1C(=O)/C(=C/c2ccc(C)o2)N(C)C1=S | -1.6 | 102 | 5 | nt | nt | i | 1
Cc1ccccc1CN1CCN(S(C)(=O)=O)CC1 | -2.0 | 99 | 0 | -444 | 63 | i | 1
Cc1cc(C)c2c(c1)[C@@H]1C=CC[C@@H]1[C@H](c1ccc(S(=O)(=O)N3CCOCC3)cc1)N2 | -1.4 | 95 | -11 | 8 | 122 | nt | nt
CCc1ccccc1NC(=O)c1cc(-c2cccc(O)c2)on1 | -1.1 | 110 | 1 | nt | nt | i | 0.81
CCSc1nnc2c(n1)OC=Nc1ccc(Br)cc1-2 | 0.0 | 103 | 4 | -24 | 154 | i | 0.93
CSc1ccccc1NC(=O)COc1ccc(S(=O)(=O)N2CCCC2)cc1 | -2.6 | 103 | -7 | 21 | 115 | i | 0.69
CC(C)C(=O)c1cn(CC(=O)NCc2ccco2)c2ccccc12 | 0.8 | 112 | -14 | -25 | 77 | i | 0.94
O=C(CNC(=S)N(Cc1ccccc1)Cc1cccnc1)NCCc1ccccc1 | -0.5 | 38 | -11 | -7 | 36 | i | 1.1
CC(/C=N/NC(=O)c1cc(-c2ccc(C)s2)[nH]n1)=C\c1ccccc1 | 2.0 | 102 | -11 | 38 | 134 | i | 0.85
CCCn1c(SCC(=O)Nc2ccc(OCC)cc2)nnc1C(C)C | -1.0 | 102 | -3 | -58 | 184 | i | 1
COc1cc(NC(=O)c2csc(-c3ccncc3)n2)cc(C(=O)Nc2cccc(C(F)(F)F)c2)c1 | nt | 101 | nt | nt | nt | i | 0.6
COc1ccc(C(=O)Oc2cccnc2)cc1 | -2.3 | 104 | 2 | 22 | 111 | i | 0.86
Cc1nc(NC(C)C)c2oc3ccccc3c2n1 | 0.8 | 99 | 8 | 50 | 91 | i | 1.1
COc1ccc2nc3ccccc3nc2c1NC(=O)c1ccc(Cl)cc1Cl | -1.2 | 113 | -7 | -31 | 67 | i | 1.1
COC(=O)C(C)Sc1n[nH]c(=S)s1 (centres undefined) | -3.5 | 93 | 0 | 28 | 97 | i | 0.8
Cc1cc(N2CCCCC2)c(F)cc1[N+](=O)[O-] | -0.7 | 95 | -6 | 13 | 56 | i | 1.1

# Assay outcomes from PubChem BioAssay.

# Rows were taken by chance; 1.3% or so of the library scored in one or more.
